Compound activity as filed in PubChem BioAssay.
Polio RdRp inh = poliovirus RdRp elongation inhibitors, primary screen, biochemical, fluorescence polarization, total intensity; Genome polyprotein (Poliovirus type 1 (strain Mahoney)), P03300; poliovirus polymerase elongation; active compounds read low; % elongation, % (compound at 16.7 µg/mL); 150,000 tested, 0.66% active; in the data active means % elongation below about 90%; further: some results filed as inactive read as strong as hits
Target sequence (P03300 1749-2209 limits assumed): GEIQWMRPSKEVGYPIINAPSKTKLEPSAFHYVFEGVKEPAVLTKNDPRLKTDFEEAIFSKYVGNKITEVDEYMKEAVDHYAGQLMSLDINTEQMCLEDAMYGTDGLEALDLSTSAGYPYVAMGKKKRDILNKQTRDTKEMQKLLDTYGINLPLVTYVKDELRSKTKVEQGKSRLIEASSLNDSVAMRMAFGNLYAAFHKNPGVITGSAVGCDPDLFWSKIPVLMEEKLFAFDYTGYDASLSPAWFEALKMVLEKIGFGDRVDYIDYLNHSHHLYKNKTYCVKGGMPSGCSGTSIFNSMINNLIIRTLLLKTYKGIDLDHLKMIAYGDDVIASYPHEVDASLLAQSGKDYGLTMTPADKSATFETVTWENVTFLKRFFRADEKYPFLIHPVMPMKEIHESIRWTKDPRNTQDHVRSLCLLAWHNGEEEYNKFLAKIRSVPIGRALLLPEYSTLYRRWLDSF
Polio RdRp inh intensity = recorded beside Polio RdRp inh, whose call it bears; % elongation; measured here: total intensity read-out; formula for this scale not given here;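 total fluorescence in place of polarization; lower means less elongation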
Active calls of the source: *. Not all compounds are listed. The share of hits here may be higher or lower than overall.

structure	Polio RdRp inh	Polio RdRp inh intensity
O=C(Nc1ccc(C(F)(F)F)cc1)C(Cc1ccccc1)n1cccc1 (stereo not given)	106.0	108.0
Cc1cccc(OCC(=O)Nc2nnc(S(=O)(=O)N3CCc4ccccc43)s2)c1	113.0	112.0
O=C(Nc1ccc(C(=O)N2CCN(c3ccc(Cl)cc3)CC2)cc1)c1nsc2ccccc12	115.0	113.0
CCCCOc1ccc(CNC(=O)C2CCCN(c3nnc(-n4c(C)ccc4C)s3)C2)cc1 (stereo not given)	107.0	109.0
CCOc1ccccc1CN1CCc2nc(N3CCN(C)CC3)ncc2C1	112.0	114.0
CC(C)n1c(=N)c(C(=O)NCc2cccnc2)cc2c(=O)n3ccccc3nc21	107.0	101.0
Cc1cccc(N2CCN(C3(c4ccccc4)C(=O)c4ccccc4C3=O)CC2)c1C	114.0	110.0
O=C(CSc1nc2ccccc2nc1Cc1ccc(Cl)cc1)N1CCN(c2ccccc2)CC1	103.0	107.0
CSc1ccc(CCNC(=O)Cn2ncc3c(=O)oc4ccccc4c32)cc1	110.0	106.0
COC(=O)C1=C(C)N(C(C)C)C(=O)C1(NC(=O)c1ccc(C(C)(C)C)cc1)C(F)(F)F (stereo not given)	105.0	109.0
CC1CCC(NC(=O)c2ccc3c(c2)N(Cc2cccc(Cl)c2)C(=O)c2ccccc2S3=O)CC1 (stereo not given)	107.0	113.0
COc1ccc(-c2nc3n(n2)C(c2cccc(C)c2)C(C(N)=O)=C(C)N3)cc1OC (stereo not given)	108.0	108.0
Fc1ccc(-c2ccc(CNCCSc3nnnn3-c3ccccc3)o2)cc1Cl	99.0	102.0
COC(=O)c1ccc(C(=O)OC)c(NC(=O)c2ccc(-c3ccccc3)s2)c1	108.0	105.0
CCOC(=O)C1CCN(c2c(C(=O)c3ccc(C)cc3)cnc3ccc(F)cc23)CC1	80.0*	80.0*
O=C(CS(=O)(=O)c1cccc2nsnc12)NCc1ccccc1Cl	112.0	111.0
CC(C)OCCCNC(=O)CSc1c2c(nc3ccc(Cl)cc13)CCCC2	102.0	104.0
CC1=C(c2ccc(C(C)C)cc2)S(=O)(=O)NC1=NCc1ccc(Cl)cc1	99.0	109.0
CCc1nn(CCCC(=O)NCc2ccccc2Br)c(=O)c2cc3occc3n12	101.0	104.0
Cc1ccc2nc(N3CCN(c4cccc(Cl)c4)CC3)c3nnnn3c2c1	111.0	126.0
COc1ccc(OCC(=O)OCc2cc(=O)n3nc(C4CC4)sc3n2)cc1	99.0	102.0
CCOc1ccccc1NC(=O)CN1CCN(S(=O)(=O)c2ccc(Br)cc2)CC1	100.0	101.0
COc1ccc(C2C(=O)N(C3CCC(C)CC3)CC(=O)N2Cc2ccccc2Cl)cc1OC (stereo not given)	116.0	107.0
Cc1cc(C)cc(NC(=O)C2CCN(S(=O)(=O)c3cn(C)cn3)CC2)c1	106.0	112.0
O=C(Cc1ccccc1)Nc1sc2c(c1C(=O)Nc1ccc(Br)cc1)CCCC2	104.0	107.0

Pulled by compound from the entries so far:
structure	Polio RdRp inh	Polio RdRp inh intensity
O=C(Nc1ccc(C(=O)N2CCN(c3ccc(Cl)cc3)CC2)cc1)c1nsc2ccccc12	115.0	113.0
CC1CCC(NC(=O)c2ccc3c(c2)N(Cc2cccc(Cl)c2)C(=O)c2ccccc2S3=O)CC1 (stereo not given)	107.0	113.0
Fc1ccc(-c2ccc(CNCCSc3nnnn3-c3ccccc3)o2)cc1Cl	99.0	102.0
Cc1cccc(OCC(=O)Nc2nnc(S(=O)(=O)N3CCc4ccccc43)s2)c1	113.0	112.0

Remaining list, next part
structure	Polio RdRp inh	Polio RdRp inh intensity
CSc1ccc(CCNc2ncnc3onc(-c4ccc(Cl)cc4)c23)cc1	100.0	106.0
COc1cccc(C2Nc3ccccc3-c3nnc(SCc4ccccc4)nc3O2)c1OC (stereo not given)	108.0	111.0
O=S1(=O)c2ccccc2N(Cc2ccccc2)c2ccccc21	104.0	112.0
COc1ccc(OC)c(NC(=O)N2CCC(CN3CCCCC3)CC2)c1	110.0	111.0
CCN1CCc2c(sc(NC(=O)CSc3ccccc3)c2-c2nc3ccccc3s2)C1	94.0	278.0
Cc1cc(Nc2ccc(Br)cc2)n2nc(-c3ccccc3C)nc2n1	105.0	109.0
CN(C)c1ccc(C(CNC(=O)c2ccccc2Cl)N2CCc3ccccc32)cc1 (stereo not given)	103.0	109.0
O=S(=O)(NCC(c1cccs1)S(=O)(=O)c1ccccc1)c1ccc(F)cc1 (stereo not given)	113.0	116.0
CCOC(=O)c1cccc(NC(=O)c2cc3c(-c4cccc(OC)c4)nn(C)c3s2)c1	106.0	106.0
COc1ccccc1N1CCN(c2cc(C)nc3nc(-c4ccc(C)cc4)nn23)CC1	108.0	104.0
FC(F)(F)c1cccc(-n2cc(-c3ccccc3)c3c(N4CCCCC4)ncnc32)c1	111.0	113.0
COc1ccc2nc3oc(C(=O)N4CCN(c5cc(C)ccc5C)CC4)cc3cc2c1	107.0	105.0
Cc1ccc(NC(=O)C2CCN(C(=O)c3cnn(-c4ccccc4)c3-n3cccc3)CC2)cc1	111.0	107.0
CCOc1ccccc1CNC(=O)c1cn(-c2ccc(OC)cc2)c(=O)c2ccccc12	107.0	100.0
O=[N+]([O-])c1ccc(C(c2sc3nc(-c4ccco4)nn3c2O)N2CCC3(CC2)OCCO3)cc1 (stereo not given)	111.0	115.0
O=S(=O)(c1ccccc1)N1CCC(c2ccncc2)CC1	104.0	105.0
CC(NC(=O)c1ccc2c(c1)CCN2S(=O)(=O)c1ccccc1)c1ccccc1 (stereo not given)	106.0	113.0
COc1cccc(NC(=O)C2=C(C)C(=O)OC23CCN(C(C)=O)CC3)c1	106.0	106.0
CCOc1ccc2ncc3c(-c4ccc(C)cc4)nn(-c4cccc(F)c4)c3c2c1	107.0	107.0
CC(C)C(=O)Nc1ccc2nc(SCC(=O)N3CCCC3)sc2c1	109.0	111.0
Cc1ccc(C(=O)NCC(c2cccnc2)N2CCc3ccccc32)cc1C (stereo not given)	111.0	113.0
COc1ccccc1NC(=O)N1CCN(Cc2nc3ccc(C)cc3o2)CC1	107.0	111.0
Cn1cc(S(=O)(=O)c2ccccc2)c(=O)c2cc(F)c(N3CCN(c4ccc(F)cc4)CC3)cc21	115.0	116.0
COc1cccc(CNC(=O)Cn2c(=O)oc3cc(S(=O)(=O)N4CCCC4)ccc32)c1	106.0	108.0
O=C(CSc1nncn2c1cc1occc12)Nc1ccccc1C(F)(F)F	103.0	111.0
CN(C)c1cccc(C(=O)N2CCC(c3c[nH]c4ccccc34)(c3c[nH]c4ccccc34)CC2)c1	107.0	113.0
COc1ccc(-n2c(=O)c3ccccc3n(Cc3ccc(F)cc3Cl)c2=O)cc1OC	107.0	108.0
CCOc1ccccc1NC(=O)c1sc2nc(-c3ccc(OC)cc3)ccc2c1N	110.0	112.0
O=c1c2oc3ccccc3c2n(Cc2cccc(Cl)c2)c(=O)n1Cc1ccc2c(c1)OCO2	107.0	110.0
CCC(Oc1ccccc1)C(=O)N1CCN(Cc2cc(=O)n3nc(-c4cccc(C)c4)sc3n2)CC1 (stereo not given)	102.0	101.0
COc1ccccc1CN1CCC(CNC(=O)c2cnn(-c3ccc(C)c(C)c3)c2C2CCN(C(=O)OC(C)(C)C)CC2)CC1	109.0	111.0
COc1cccc(CNC(=O)CN2C(=O)COc3ccc(S(=O)(=O)N4CCCCC4)cc32)c1	109.0	103.0
CCc1nc(-c2cc(S(=O)(=O)N3CCN(c4ccccc4)CC3)ccc2OC)no1	111.0	107.0
CCCCCN1C(C(=O)c2ccccc2)=C(NC(=O)c2ccccc2Cl)c2ccccc2S1(=O)=O	107.0	110.0
Cc1nc2c(cnn2-c2ccccc2Cl)c(=O)n1-c1ccc(C(C)C)cc1	105.0	103.0
COc1ccc(Cn2c(=O)c3cccnc3n(Cc3cccc(F)c3)c2=O)cc1	107.0	110.0
Cc1cc(C)c(NC(=O)CSc2ncc(S(=O)(=O)c3ccc(C(C)(C)C)cc3)c(=O)[nH]2)c(C)c1	102.0	109.0
COc1cccc(CN2C(=O)C3(SCC(=O)N3c3ccc(C)c(Cl)c3)c3ccccc32)c1 (stereo not given)	103.0	108.0
CC(=O)Nc1cccc(NC(=O)CSc2nccn2Cc2ccccc2)c1	108.0	115.0
CC(C)(C)OC(=O)N1CCC(c2nnc(SCc3ccccc3F)o2)CC1	102.0	100.0
COc1ccc(NC(=O)COCc2cc(-c3ccco3)on2)cc1Cl	106.0	87.0
Cc1ccc(NC(=O)c2c(C(=O)Nc3ccccc3)sc3nc(C)cc(=O)n23)cc1	111.0	109.0
Cc1cccc(NC(=O)CN2C(=O)COc3ccc(S(=O)(=O)N4CCC(C)CC4)cc32)c1C	107.0	117.0
Cc1ccc2oc(C(=O)Nc3sc4c(c3C(=O)NCc3cccnc3)CCCC4)cc(=O)c2c1	112.0	112.0
Cc1c(CCC(=O)NCCc2ccccc2)c(=O)oc2c(C)c(O)ccc12	110.0	115.0
CCOc1ccc(NS(=O)(=O)c2ccc3[nH]cc(C(=O)NCC4CCCO4)c(=O)c3c2)cc1 (stereo not given)	113.0	111.0
CSc1ccc(C2c3c(-c4ccccc4O)n[nH]c3C(=O)N2Cc2ccncc2)cc1 (stereo not given)	100.0	92.0
CCNC(=O)CC1C(=O)N(c2cccc(OC)c2)C(=O)N1Cc1ccc(OC)c(OC)c1 (stereo not given)	101.0	106.0
COC(=O)c1sc2cccc(F)c2c1S(=O)(=O)N1CCN(c2cccc(OC)c2)CC1	113.0	117.0
COc1ccc(-c2nc(SCC(=O)Nc3ccc4c(c3)OCCO4)c(-c3ccc(F)cc3)[nH]2)cc1	111.0	117.0

The results go on:
structure	Polio RdRp inh	Polio RdRp inh intensity
Cc1ccc(OCC(=O)Nc2nonc2-c2ccc(Br)cc2)cc1C	99.0	106.0
COCCCNC(=O)c1ccc2c(=O)n(Cc3ccc(OC)cc3)c(=O)[nH]c2c1	108.0	104.0
Cc1cc2c(cc1S(=O)(=O)Nc1cccc(Cl)c1C)OCCN2C	108.0	110.0
Cc1ccc(NC(=O)Cn2c(=O)nc(-c3ccccc3F)c3cc(Cl)ccc32)c(Br)c1	112.0	115.0
CCOc1ccc2c(c1)c(=O)c(C(=O)c1ccc3c(c1)OCO3)cn2Cc1cccc(F)c1	107.0	109.0
O=C1CC(c2c(F)cccc2Cl)c2c(c3ccccc3oc2=O)O1 (stereo not given)	106.0	107.0
Cc1ccc(S(=O)(=O)N2CCN(Cc3ccccc3Cl)CC2)cc1	98.0	100.0
CCOc1ccc(NC(=O)Cn2c(=O)n(Cc3ccco3)c(=O)c3oc4ccccc4c32)cc1	108.0	114.0
COc1ccc2c(c1)c1c(c(=O)n(-c3cccc(C)c3)c(=O)n1CC(=O)NCc1ccc(C)cc1)n2C	108.0	113.0
COc1ccc(-c2cc(C(=O)Nc3ccc4c(c3)OCO4)no2)cc1OC	102.0	105.0
CC(C)c1nc2ccc(C(=O)NCCCN3CCN(c4cccc(Cl)c4)CC3)cc2o1	110.0	114.0
CCN1CCN(c2oc(/C=C/c3ccc(OC)c(OC)c3)nc2C#N)CC1	105.0	105.0
CCc1ccccc1NC(=O)CN1CCCN(Cc2cc(C)ccc2C)S1(=O)=O	112.0	112.0
COc1ccc(Cl)cc1NC(=O)N1CC(=O)Nc2sc3c(c2C1c1ccccc1)CCCC3 (stereo not given)	102.0	110.0
CCc1ccc2oc(-c3cc(NC(=O)c4cccs4)ccc3Cl)nc2c1	107.0	108.0
COC(=O)c1sc(NC(=O)/C=C/c2ccc(OC)c(OC)c2)c(C(=O)OC)c1C	113.0	114.0
Cc1cccc(N2CCN(c3nc4ccc(C(=O)c5ccccc5)cc4n4cnnc34)CC2C)c1 (stereo not given)	109.0	109.0
COc1cc(OC)cc(C(=O)Nc2cc3c(cc2N2CCCCC2)n(C)c(=O)n3C)c1	108.0	112.0
CC1(C)O[C@H]2[C@@H](O1)[C@@H](C(=O)Nc1cc(F)ccc1F)O[C@@H]1OC(C)(C)O[C@@H]12	106.0	112.0
CCOc1ccc(N(CC)S(=O)(=O)N2CCCC(C(=O)NCc3ccc(Cl)cc3)C2)cc1 (stereo not given)	104.0	106.0
CCN(c1ccccc1C)S(=O)(=O)c1nnc(NC(=O)c2ccc(OC)c(OC)c2)s1	107.0	103.0
Cc1cc(C)c2oc(C(=O)Nc3sc4c(c3C(=O)NCc3ccco3)CCC4)cc(=O)c2c1	113.0	115.0
CCOC(=O)C1CCC(CN(Cc2c(Cl)cccc2Cl)S(=O)(=O)c2ccc(Cl)cc2)CC1 (stereo not given)	108.0	111.0
CCC1CN(C(=O)Nc2cc(Cl)c(OC)cc2OC)c2ccccc2O1 (stereo not given)	104.0	100.0
O=C(C1CCCN(S(=O)(=O)c2cccc3nsnc23)C1)N1CCN(c2ccccc2Cl)CC1 (stereo not given)	112.0	112.0
CCc1ccc(S(=O)(=O)c2cn(CC)c3cc(N4CCCCC4)c(F)cc3c2=O)cc1	111.0	105.0
CCCN(CCC)C(=O)CSc1c2c(nc3ccc(Cl)cc13)CCCC2	105.0	111.0
N#Cc1ccccc1NC(=O)C(=O)NCC(c1ccc2c(c1)OCO2)N1CCOCC1 (stereo not given)	105.0	108.0
O=C(NCCc1ccccc1)C(=O)NCC(c1ccco1)S(=O)(=O)c1ccccc1 (stereo not given)	108.0	116.0
COc1ccc(C(=O)Nc2nnc(S(=O)(=O)N3CCN(c4ccc(F)cc4)CC3)s2)cc1	112.0	114.0
COc1cccc(N2CCN(C(=O)c3cc4c(=O)n(Cc5cccnc5)ccc4nc3C)CC2)c1	104.0	111.0
